Assay outcomes (PubChem)
RanGTP-Imp inh – disruptors of Ran-importin-beta complex formation – biochemical, FRET, CFP-Ran, YFP-importin-beta, homogeneous, primary screen. cell-free CFP-Ran/YFP-importin-beta FRET ratio. inhibition, % (no concentration beside the values). 300,000 tested, 1.1% active. AID 2216;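 active = most replicates above 15%; inconclusive = exactly half above 15%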;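 also: 0% = DMSO wells and 100% = Ran loaded with GDP instead of GTP; wells of about 40 µL received 100 nL stock; the first replicate is given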
B2AR ag – activates human beta-2 adrenergic receptor causing internalization; P07550; Am2.2-beta2AR cells, FAP receptor internalization, flow cytometry; reference of the scale not given here; response, % (concentration not given with the values); 340,000 tested, 0.43% active; AID 504454;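 active = response above a set limit, near 3 SD of response in nonfluorescent compounds, cut at about 42% in these data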;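 also: stock transfer was 100 nL into about 11 µL; a reference agonist was the positive control; negative values mostly stem from fluorescent compounds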
Target sequence (P07550 whole entry, looked up): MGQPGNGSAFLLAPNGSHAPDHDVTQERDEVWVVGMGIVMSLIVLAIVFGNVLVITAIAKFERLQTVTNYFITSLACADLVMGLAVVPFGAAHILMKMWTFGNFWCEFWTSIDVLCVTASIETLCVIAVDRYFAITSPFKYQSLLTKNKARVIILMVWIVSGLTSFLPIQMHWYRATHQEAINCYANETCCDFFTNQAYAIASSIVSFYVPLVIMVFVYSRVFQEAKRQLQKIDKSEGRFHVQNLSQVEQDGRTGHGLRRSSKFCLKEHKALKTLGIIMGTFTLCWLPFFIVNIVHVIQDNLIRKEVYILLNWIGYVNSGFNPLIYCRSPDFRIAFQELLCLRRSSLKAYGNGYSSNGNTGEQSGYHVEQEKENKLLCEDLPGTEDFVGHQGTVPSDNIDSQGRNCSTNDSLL
UCH37 DUB inh – inhibitors of human deubiquitinating enzyme UCH37; AID 588478; 330,000 tested, 0.33% active; purified proteasome/UCH37, Ub-AMC cleavage fluorescence; inhibition, % (no concentration beside the values); Q9Y5K5;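 active = mean of two replicates above 20%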;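 also: 0% = compound-free wells with enzyme and 100% = wells lacking proteasome; stock transfer was 100 nL into about 20 µL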
Target sequence (Q9Y5K5 whole entry, looked up): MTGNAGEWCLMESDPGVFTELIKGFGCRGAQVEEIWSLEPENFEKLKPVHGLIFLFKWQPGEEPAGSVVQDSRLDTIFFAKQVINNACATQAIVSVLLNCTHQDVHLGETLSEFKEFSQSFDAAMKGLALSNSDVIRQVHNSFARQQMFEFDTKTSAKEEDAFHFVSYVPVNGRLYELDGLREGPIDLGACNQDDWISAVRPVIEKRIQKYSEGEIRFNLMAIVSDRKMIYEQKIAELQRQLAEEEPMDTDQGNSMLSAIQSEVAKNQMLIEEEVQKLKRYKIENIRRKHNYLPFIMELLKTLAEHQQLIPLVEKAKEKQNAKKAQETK
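Test system – human UCH37 enzyme supplied as purified proteasome complex · Incubation – 30 min preincubation with enzyme, 25 min cleavage at room temperature · Detection – AMC fluorescence from Ub-AMC cleavage, excitation 355 nm, emission 460 nm · Benchmarks – no-proteasome wells (full inhibition) and compound-free wells (no inhibition)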
LANA-H2A inh – blocks KSHV LANA binding to histone H2A/H2B; cell-free LANA-H2A/H2B peptide, fluorescence polarization; inhibition, % (test concentration not listed); 320,000 tested, 0.6% active; AID 2629; Q9QR71; in the data active = inhibition mostly above about 10%, no sharp cut-off; inactive = mostly below about 6.7%;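 also: stock transfer was 7.5 nL into about 10 µL; 0% = median of vehicle wells and 100% = median of positive control wells; one replicate is shown; the record names a cut of 25% in any replicate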
T cruzi repl – T. cruzi replication inhibition | T. cruzi beta-gal in NIH3T3, luminescence, 90 h | inhibition, % (concentration not given with the values) | 300,000 tested, 1.4% active;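 active = mean inhibition across valid replicates above about 55%, limit read from the data; inconclusive = mean below that limit but half or more replicates reach it; inactive = mean below it, under half of replicates reach it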;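 also: signal also drops with host cell toxicity which is not excluded here; 0% = plate median of DMSO wells and 100% = zero luminescence signal; higher percent means less beta-gal luminescence so fewer parasites; stock transfer was 50 nL into about 50 µL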
Calb FLC – affects C. albicans growth with fluconazole. AID 1979. C. albicans CaCi-2 (fluconazole-resistant clinical isolate) + fluconazole, Alamar Blue growth, 48 h. growth inhibition, % (test concentration not listed). 300,000 tested, 0.57% active;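 active = most replicates above 75%; inconclusive = exactly half above 75%; inactive = most below 75%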;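 also: all wells also contain fluconazole at 8 µg/ml as a sub-toxic cotreatment; 0% = median of DMSO wells and 100% = median of geldanamycin control wells; wells of about 8 µL received 7.5 nL stock; the first replicate is given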
Beta cell apopt – beta cell apoptosis inhibition. protection from apoptosis, % (no concentration beside the values). 300,000 tested, 0.8% active. INS-1E cytokine-induced death, ATP luminescence, 48 h; percent of positive-control rescue, neutral wells zero;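 active = all replicates at 75% or more, or half of them and the mean; inconclusive = half reach 75% but not the mean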;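 also: 0% = cytokine-treated negative control wells and 100% = positive control rescue; higher means more ATP so stronger rescue from cytokine killing; wells of about 40 µL received 100 nL stock; the first replicate is given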
Bfl-1 A1 inh – inhibitors of the anti-apoptotic protein A1, read as caspase activation. MEF A1-2A-BIM cells, Caspase-Glo 3/7 luminescence, 3 h; percent of clofoctol response, vehicle zero. caspase activation, % (concentration not given with the values). 330,000 tested, 0.066% active. AID 2462;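 active = over half of replicate activation scores above 10%, or exactly half above 10 with the replicate mean above 10; inconclusive = replicate mean below 10 yet half the replicates above 10; inactive = over half of replicates below 10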;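 also: wells of about 30 µL received 50 nL stock; many hits fall short of the cut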
* = called active by the depositor; ? = inconclusive; . = not tested or not shown.

SMILES	RanGTP-Imp inh	B2AR ag	UCH37 DUB inh	LANA-H2A inh	T cruzi repl	Calb FLC	Beta cell apopt	Bfl-1 A1 inh
S=C(Nc1ccc(Nc2ccccc2)cc1)Nc1ccccn1	-1.6	-10	46*	-6.9	25	-4	86*	0.1
COc1cc(CNCCO)ccc1OC1CCCC1	3.5	6	5.2	-5.7	35	3	0	-0.7
CCCCNC(=S)NNC(=O)c1csc(C)c1CC	0.8	1	1.0	-5.1	-1	-8	-1	-1.0
COc1ccc(NC(=O)CC2COc3ccccc3O2)c(OC)c1 (stereo not given)	-1.1	-4	-0.4	-2.1	-11	-1	2	0.8
CCOC(=O)c1c(C)[nH]c(C(=O)N/N=C\c2ccccc2O)c1C	6.5	-5	.	8.1	-5	-4	77*	-1.9
COc1ccccc1CCNC(=O)C1(C)CC1(Cl)Cl (stereo not given)	3.5	-4	-0.4	-5.5	-8	5	.	-3.4
O=C(Nc1ccnc(=O)[nH]1)c1sc2ccccc2c1Cl	1.5	-5	-0.1	-4.4	-10	-6	-2	-6.0
CN(C)c1ccc(C(O)Cc2nc3ccccc3n2C)cc1 (stereo not given)	?	-7	-0.8	-0.8	-12	-41	1	-1.4
O=C(NCc1ccco1)c1cccc(-c2nnc(-c3ccccc3)o2)c1	2.9	1	-2.2	-3.4	20	-3	8	-0.4
CC(=O)Nc1ccc(N2C(=O)C3C4C=CC(CC4)C3C2=O)cc1 (stereo not given)	-1.4	40	0.6	2.7	-2	-4	-4	-1.1
Cc1sc(NC(=O)c2ccco2)c(C(c2cccnc2)N2CCN(CCO)CC2)c1C (stereo not given)	0.0	-1	5.6	7.1	33	-12	-1	0.1
Cc1cccc(C)c1NC(=O)C(C)N1CCCCC1 (stereo not given)	4.5	-5	1.6	1.0	-11	1	-6	0.4
CC(=O)Nc1ccc(SCC(=O)c2cc(C)n(Cc3cccs3)c2C)cc1	-0.6	4	-2.3	-1.0	11	0	1	0.6
O=C(NCCCN=C1NS(=O)(=O)c2ccccc21)c1ccccc1Cl	-1.0	3	4.7	3.4	-3	-1	1	-0.1
CCN(CC)CCNC(=O)C1(O)c2cc(Br)ccc2NC(=O)N1c1ccc(Cl)cc1 (stereo not given)	-3.1	4	1.0	-3.2	0	-3	-12	0.6
COc1ccc2[nH]c(=O)c(C(c3nnnn3C(C)(C)C)N(Cc3ccco3)CC3CCCO3)cc2c1 (stereo not given)	?	0	-21	2.5	9	11	.	-0.4
Cc1csc(NC(=O)CSc2nnc(NC(=O)COc3ccc(Cl)cc3)s2)n1	-0.6	-9	-0.4	13	-3	-1	5	-0.1
Cc1cc(C)cc(-n2nnn(C3C/C(=N/NC(N)=S)C4OCC3O4)c2=S)c1 (stereo not given)	3.3	1	.	-1.0	-11	8	.	0.1
O=C(CCCOc1ccccc1)Nc1ccccc1C(F)(F)F	1.0	-1	0.3	-4.5	-18	-7	5	0.0
O=C(c1cc(S(=O)(=O)N2CCOCC2)ccc1Cl)N1CCN(c2ccccn2)CC1	-3.4	-5	2.0	.	8	1	-1	-0.4
CN(C)/C=C1\SC(=S)N(c2ccc(Br)cc2)C1=O	2.7	13	.	-0.6	8	0	10	-0.6
COc1ccc(OC)c(CC(=O)Nc2ccc3c(c2)CCC3)c1	1.2	17	0.6	2.2	7	6	-2	1.0
CCOC(=O)C1C(=O)CC(C)(O)C(C(=O)OCC)C1c1cccs1 (stereo not given)	1.6	11	2.4	1.6	-3	-2	-4	0.4
O=C(Nc1nnc(Cc2ccccc2F)s1)c1ccccc1Cl	5.0	11	.	3.0	-2	-1	-2	0.0
C=CCn1c(COc2ccc(Cl)cc2)nnc1SCC(=O)NCC(=O)OCC	0.5	2	3.6	3.6	0	14	1	-0.6
O=C(Nc1ccccc1)c1nn(-c2ccccc2)c(=O)cc1C(F)(F)F	1.2	4	4.1	2.3	-7	7	1	1.6
CC1CCCCC1NC(=O)CCS(=O)(=O)c1ccc2c(c1)NC(=O)CS2 (stereo not given)	24	0	1.0	5.0	-2	9	-4	0.2
COc1cc(OC)c(N(C)C(=O)c2cn(C)c(=O)c3cc(OC)c(OC)cc23)cc1Cl	2.5	.	2.8	-2.8	4	0	-3	-0.9
Cc1ccc(NC(=O)C(=O)c2c(-c3ccccc3)cc3ccccn23)cc1S(=O)(=O)N1CCOCC1	-1.4	11	5.6	-0.7	11	10	.	0.2
CC(NC(=O)CCC(=O)c1ccc(F)cc1)C1CC2CCC1C2 (stereo not given)	3.3	-4	5.1	0.1	11	-12	1	0.9

Copied from the list.
For Bfl-1 A1 inh, CC1CCCCC1NC(=O)CCS(=O)(=O)c1ccc2c(c1)NC(=O)CS2 (stereo not given) shows 0.2
For T cruzi repl, O=C(Nc1ccccc1)c1nn(-c2ccccc2)c(=O)cc1C(F)(F)F shows -7

Remaining list, next part.
SMILES	RanGTP-Imp inh	B2AR ag	UCH37 DUB inh	LANA-H2A inh	T cruzi repl	Calb FLC	Beta cell apopt	Bfl-1 A1 inh
Cc1cc(C(=O)NCc2ccccc2F)c2ccccc2n1	-2.7	-7	-0.6	-6.0	-8	2	-2	0.0
CN(C(=O)COC(=O)c1nc(-c2ccccc2)n(-c2ccccc2)n1)C1CCS(=O)(=O)C1 (stereo not given)	1.6	2	-0.4	0.0	-5	6	-4	0.7
CCCn1c(=O)c(F)cn(Cc2ccc(OC)c([N+](=O)[O-])c2)c1=O	2.3	0	0.1	0.6	-3	1	0	-0.3
CCC(O)CNC(=O)CCc1nnc(C2(c3ccc(Cl)cc3)CCC2)o1 (stereo not given)	3.0	-4	1.7	-1.3	-3	2	2	0.8
Cc1c(NC(=O)CC2CC(C)OC2=O)c(=O)n(-c2ccccc2)n1C (stereo not given)	2.2	5	0.8	1.6	-7	5	-3	-0.6
NC(=O)c1ccc(NC(=O)CCc2nc3sc4c(c3c(=O)[nH]2)CCCC4)cc1	1.4	-9	1.5	0.0	-5	6	-2	0.0
CC(C)(C)NC(=O)c1ccc(NC(=O)C2COc3ccccc3O2)cc1 (stereo not given)	-13	2	1.4	0.7	-2	1	-2	-0.4
O=C(Nc1cc(-c2ccccc2)nn1C1CCCCC1)c1ccc(Cl)cc1	.	1	-0.1	5.1	.	.	97*	1.4
CCOC(=O)N1CCN(C(=O)CSc2nc3c(c(=O)n2-c2ccccc2OC)SCC3)CC1	-0.1	-2	4.5	-1.7	-2	-5	-1	-0.6
CC1(C)CC(NC(=O)c2ccc(Br)o2)CC(C)(C)N1	2.5	-2	1.1	-7.1	-5	-4	-7	0.9
COc1ccccc1CNC(=O)CCS(=O)(=O)c1cccc2nonc12	?	-2	1.6	2.6	-6	15	-3	0.0
CCOC(=O)CCc1c(C)nc(-n2[nH]c(C)c(CCO)c2=O)[nH]c1=O	-1.8	4	3.5	-2.3	7	10	-7	0.2
O=S(CC(O)COCc1ccc(Cl)cc1)c1ccccn1 (stereo not given)	4.5	-4	3.5	3.4	-2	10	1	0.6
CCOC(=O)c1cccc(NC(=O)CCS(=O)(=O)c2cccc3nsnc23)c1	1.4	-2	5.3	2.6	1	-1	-5	-1.3
C[C@H](CO)N1C[C@H](C)[C@@H](CN(C)Cc2ccncc2)Oc2c(NS(=O)(=O)c3ccccc3)cccc2C1=O	.	6	1.4	-3.7	.	.	-8	1.6
O=C(NC1CCN(Cc2ccccc2)CC1)C1CCN(S(=O)(=O)c2cccc([N+](=O)[O-])c2)CC1	2.7	8	1.3	-2.2	40	-4	-1	0.4
CCCC(=O)N1CCN(c2ccc(NC(=O)c3ccc([N+](=O)[O-])o3)cc2Cl)CC1	1.8	42*	6.7	.	57*	17	.	.
Cc1ccc(CNC(=O)c2ccc(N3CCC4(CC3)CC(c3cccc(Br)c3)=NO4)c(NC(=O)c3cccc(C)c3)c2)cc1	.	-4	1.1	-4.7	.	.	10	0.0
CC(C)CC1NC(C(=O)O)Cc2c1[nH]c1ccccc21 (stereo not given)	4.6	10	-14	6.0	-16	-11	5	0.3
CCOc1ccc(CCNC(=O)C2CCCN(S(C)(=O)=O)C2)cc1OCC (stereo not given)	-1.8	-3	1.6	-1.7	-17	3	-3	-0.2
CN(C)c1ccc(C(=O)OCc2ccc(Br)cc2)cc1	2.2	2	-0.6	0.4	14	-19	-5	-0.4
COC(=O)c1ccccc1NC(=O)NCc1ccccn1	-2.4	0	-2.2	-2.8	-1	-12	-2	0.8
CC(C)c1nnc(NC(=O)CCC(=O)N2CCN(C3CCCCC3)CC2)s1	5.0	-5	5.9	-6.5	6	6	8	0.3
CCn1cc(C(=O)NCCCN2CC(C)CC(C)C2)c(=O)c2cc(S(=O)(=O)N(C)C3CCCCC3)ccc21 (stereo not given)	-0.6	25	1.7	0.4	20	7	12	-1.3
CCCCNC(=S)NNC(=O)c1cc(-c2ccncc2)nc2ccccc12	?	-3	6.9	-2.7	8	50	8	-0.4
COC(=O)c1scc(C)c1NC(=O)/C=C/C(=O)O	2.2	-6	3.0	0.1	-4	-1	-10	-0.1
Cc1c(NC(=O)CCN2C(=O)c3ccccc3C2=O)c(=O)n(-c2ccccc2)n1C	-2.6	-2	-1.4	-1.1	-1	0	-6	-0.4
Cc1ccc(/C=C/C(=O)c2ccc(O)cc2)cc1	-4.7	-3	.	-4.6	-9	-4	3	-1.7
O=C(N/N=C/c1cn[nH]c1-c1ccccc1)c1ccco1	0.5	-13	.	0.6	5	?	-1	0.0
COc1ccc(OCC(=O)Nc2cccc(C(C)=O)c2)cc1	1.6	23	0.8	6.7	0	11	-2	-0.9
O=C(N/N=C/c1cccnc1)c1cc(-c2ccccc2)nc2ccccc12	3.0	3	.	-2.7	11	-2	0	0.4
CCCCN1CC(=O)N2[C@H](c3ccc(Cl)cc3)[C@@H]3C(=O)N(CC)C(=O)[C@@H]3[C@]2(Cc2ccccc2)C1=O	-2.7	1	-1.2	5.6	-7	-14	0	2.7
NC(=O)CCCn1c(C(=O)c2cc(Cl)c(N)c(Cl)c2)c2ccc(C(F)(F)F)cc2[n+]1[O-]	3.4	-7	1.9	4.6	1	36	-1	0.5
CC1CCCN(S(=O)(=O)c2ccc(NC(=O)CN3C(=O)NC(C)(c4ccccc4)C3=O)cc2)C1 (stereo not given)	.	4	1.5	-11	-12	-4	-14	0.4
O=C(CN1CCN(Cc2ccc3c(c2)OCO3)CC1)N1CCc2[nH]c3ccccc3c2C1	32*	.	-1.1	.	29	-3	.	.
CCOc1ncccc1C(=O)OCc1ccc([N+](=O)[O-])cc1	.	4	1.7	-5.0	8	-15	-2	-0.9
COc1ccc(NC(=O)COC(=O)c2ccc(N3CCCC3=O)cc2)cc1	.	2	-1.0	.	.	.	-3	0.2
COc1cc2[nH]c(=O)n(Cc3ccc(C(=O)NCCCN4CCN(C)CC4)cc3)c(=O)c2cc1OC	-1.8	14	-11	9.6	-7	-8	-5	-0.7
Cc1cc(-c2csc(N)n2)c(C)n1Cc1ccco1	1.8	29	-0.9	-1.4	-2	3	3	0.4
